# Screening data as filed in PubChem.
# MenB inh – Mtb MenB enzyme inhibition; P9WNP5; MenB enzyme assay, absorbance read-out; some hits fall short of the stated cut; inhibition, %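 (about 12 µg/mL by stock and volumes)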; hit rate 0.43% among 100,000; AID 540299;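 active means mean of two replicates above 30%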;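 further: 0% = no compound and 100% = wells with inactive enzyme; the first replicate is given; strong numbers were not always called active; inactives centre near -10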
# Target sequence (P9WNP5 whole entry, looked up): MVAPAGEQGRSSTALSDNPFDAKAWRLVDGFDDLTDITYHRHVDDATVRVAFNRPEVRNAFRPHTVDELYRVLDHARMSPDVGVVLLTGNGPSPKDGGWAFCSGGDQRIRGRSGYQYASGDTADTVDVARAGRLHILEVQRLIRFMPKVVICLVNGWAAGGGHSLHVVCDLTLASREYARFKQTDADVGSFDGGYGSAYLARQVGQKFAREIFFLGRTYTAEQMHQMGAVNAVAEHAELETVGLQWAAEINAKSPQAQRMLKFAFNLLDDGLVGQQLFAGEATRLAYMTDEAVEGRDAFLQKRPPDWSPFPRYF
# PV pol inh – poliovirus RNA polymerase inhibition; % elongation, % (compound at 16.7 µg/mL); poliovirus polymerase elongation, fluorescence polarization; stronger effect = lower value; hit rate 0.66% among 150,000; AID 588519; P03300; in the data active means % elongation below about 90%; further: some results filed as inactive read as strong as hits
# Target sequence (P03300 1749-2209 limits assumed): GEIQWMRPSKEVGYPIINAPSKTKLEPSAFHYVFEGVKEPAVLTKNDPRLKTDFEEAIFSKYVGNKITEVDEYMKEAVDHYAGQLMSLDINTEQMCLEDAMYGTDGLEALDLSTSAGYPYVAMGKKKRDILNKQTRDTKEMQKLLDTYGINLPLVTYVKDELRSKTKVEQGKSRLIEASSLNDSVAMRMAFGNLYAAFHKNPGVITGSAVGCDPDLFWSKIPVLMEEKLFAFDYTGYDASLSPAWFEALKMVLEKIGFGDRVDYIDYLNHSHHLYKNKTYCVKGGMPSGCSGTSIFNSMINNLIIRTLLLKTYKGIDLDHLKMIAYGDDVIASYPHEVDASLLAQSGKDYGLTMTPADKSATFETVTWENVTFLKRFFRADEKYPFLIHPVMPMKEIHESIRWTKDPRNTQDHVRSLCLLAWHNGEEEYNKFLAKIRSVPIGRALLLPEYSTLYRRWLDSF
# Mtb MbtI inh – blocks the Mycobacterium tuberculosis siderophore enzyme MbtI. AID 493033. hit rate 0.89% among 100,000. P9WFX0. purified MbtI enzyme, fluorescence intensity read-out. inhibition, %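 (about 17 µg/mL by stock and volumes)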;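 active means above 50% in both replicates, above 80% if mildly self-fluorescent; inactive means the rest, strongly fluorescent compounds included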;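 further: 0% = mean of negative and 100% = mean of positive controls; one replicate is shown; some compounds called inactive have numbers as strong as hits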
# PV pol inh intensity – also measured in PV pol inh; calls as there; % elongation; measured here: total intensity read-out; formula for this scale not given here;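 total fluorescence in place of polarization; lower means less elongation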
# Numbers without * were called inactive; i = inactive; x = not tested or not shown; & = joins results of further samples.
SMILES,MenB inh,PV pol inh,PV pol inh intensity,Mtb MbtI inh
CCNC(=O)c1ccc2c(c1)S(=O)(=O)c1ccccc1C2=O,-40,108,103,-3
O=C(Nc1ccc(Cl)cn1)c1ccc(COCC(F)(F)C(F)F)o1,7,102,99,7
O=C(c1ccc(F)cc1)c1c[nH]c2ccccc2c1=O,-20,102,97,1
CO/N=C(/C(=O)N[C@@H]1C(=O)N2C(C(=O)O)=C(COC(N)=O)CS[C@H]12)c1ccco1,-5,102,98,-7
CCN(Cc1ccccc1)C(=O)Cn1c(=O)n(CC(=O)NCc2ccco2)c(=O)c2sccc21,-7,104,109,-11
Cc1cc(C)n(CCOc2nonc2N)n1,-33,100,97,-11
O=C(c1cccc2ccccc12)N1CCOCC1,5,103,106,6
O=C(CN1CCC(Cc2ccccc2)CC1)Nc1ccc2c(c1)OCCO2,-16,106,107,-11
CN(C)S(=O)(=O)c1ccc2c(c1)C(=O)c1cc(S(=O)(=O)N(C)C)ccc1-2,-8,104,103,-4
O=C(CCC(=O)N1CCOc2ccccc21)N1CCN(c2ccccc2)CC1,-23,104,103,-4
CC(C)(CC(=O)O)CC(=O)NC1CCCCNC1=O (configuration not stated),-28,104,104,4
CCc1ccc(-c2ccc(Br)cc2)nc1,-7,104,110,x
O=C(O)c1ccc(S(=O)(=O)N(Cl)Cl)cc1,1,99,100,7
O=C(NCCC1=CCCCC1)c1ccc2c(c1)ncn2-c1cccc(F)c1,-9,97,100,-6
Nc1nc(SCc2cccnc2)[nH]c(=O)c1NC(=O)c1ccco1,-13,104,105,-3
O=C(O)CCN1C(=O)CC2(CCCCC2)C1=O,-73,105,104,-2
CC(C)(C)CC(=O)NC1CCCc2ccccc21 (configuration not stated),5,100,104,5
CCOC(=O)C1CCCCN1S(=O)(=O)c1ccc2c(c1)CCCC(=O)N2 (configuration not stated),10,99,101,17
CC1CC(C)CN(S(=O)(=O)c2ccc(NC(=O)C3COc4ccccc4O3)cc2)C1 (configuration not stated),-9,103,100,-3
O=c1oc2ccc(NS(=O)(=O)c3ccc(F)cc3)cc2s1,-2,99,103,40
CN(C)/C=C/C(=O)c1nn(-c2ccc(F)cc2)ccc1=O,-12,102,103,25
CC(C)(C)NS(=O)(=O)c1ccc(NC(=O)Nc2ccc(Cl)cc2)cc1,-16,98,103,-10
CC(N)c1cc(F)c(Cl)cc1Cl (configuration not stated),-23,101,108,-10
COC(=O)C1=C(O)/C(=C\c2ccccc2OC)N=C1C,-191,103,109,10
CC1(C)C(/C=C/c2cccc(I)c2)=[N+]([O-])C(C)(C)N1O,-4,102,106,-10
SMILES,MenB inh,PV pol inh,PV pol inh intensity,Mtb MbtI inh
CCOC(=O)C1=C(CSc2nc3ccccc3c(=O)n2C(C)CC)NC(=O)NC1C (configuration not stated),-3,101,102,2
O=C(Cc1ccc(S(=O)(=O)N2CCOCC2)s1)Nc1nnc(C2CC2)s1,-46,107,115,-16
CCOC(=O)CSc1nnc(-c2ccc(S(=O)(=O)NCc3cccs3)cc2)o1,20,100,102,10
O=C(Nc1noc2ccccc12)c1cc2c(s1)-c1ccccc1CC2,-3,100,104,-331
Cc1cc(N/C=C2\CCCCC2=O)no1,x,103,96,1
O=c1cc(-c2ccccc2)nc(SCCOc2ccc3c(c2)OCO3)[nH]1,-12,99,101,-23
CCC(=O)Oc1ccc2c(C)c(C)c(=O)oc2c1,-14,101,102,i
COc1ccccc1/C=C/CN1CC(C)OC(C)C1 (configuration not stated),-15,103,106,1
Cc1cc(C)n(Cc2ccc(C(=O)O)cc2)n1,x,101,107,-7
O=C(Cn1nnc2ccccc2c1=O)NC(=O)NCc1ccccc1,-25,x,x,1
CSc1ccc(-c2sc(C)nc2C)nn1,-24,106,108,15
N#Cc1ccccc1CSc1nnnn1-c1ccccc1,-22,113,124,-5
CC(C)CNC1CCC(O)CC1 (configuration not stated),4,99,104,1
CC[C@H](CO)Nc1nc(NCc2ccccc2)c2ncn(C(C)C)c2n1,5,101&100,101&98,-20
COc1cc2c(cc1OC)C(CNC(=O)OCc1ccccc1)NCC2 (configuration not stated),-26,103,103,-1
O=S(=O)(NCCCN1CCc2ccccc2C1)c1ccc(-c2cc(C(F)(F)F)no2)s1,-23,103,103,-9
Cc1ccc2nc(N3CCN(Cc4nnnn4Cc4ccccc4)CC3)c(C#N)cc2c1,25,102,106,2
CC(NC(=O)Cn1ncc2c1-c1ccccc1OC2)c1ccc2c(c1)OCCO2 (configuration not stated),1,100,101,-6
Cc1ccc(-c2nn(CC(=O)Nc3cccnc3)c(=O)c3ccccc23)cc1,-13,103,110,x
O=S(=O)(c1ccc(F)cc1)c1cc(C(F)(F)F)cc(C(F)(F)F)c1,-20,102,99,-10
COC(=O)c1ccc(-c2ccco2)[nH]1,1,102,102,105
Cc1cccc2cc(CNCC3CCCO3)c(Cl)nc12 (configuration not stated),-23,101,105,17
Cc1ccccc1OCc1nc2c3cnn(C)c3ncn2n1,-4,100,103,-7
CCC(=O)Nc1cccc(NC(=O)COc2cc(C)cc(C)c2)c1,-15,102,100,-2
Cn1c(CC(=O)Nc2ccc(Cl)cc2)nnc1SCc1nc2ccccc2c(=O)[nH]1,-67,106,101,-6
SMILES,MenB inh,PV pol inh,PV pol inh intensity,Mtb MbtI inh
Cc1ccc(SC(C)C(=O)NCC2CCCO2)cc1 (configuration not stated),1,108,111,x
NNC(=O)C(O)(c1ccccc1)c1ccccc1,13,103,96,0
CCN(CC)S(=O)(=O)c1ccc(NN=c2c(=O)c3ccccc3c2=O)cc1,4,102,108,-9
O=C(O)C(Cc1ccccc1)N=Cc1c(O)c2ccccc2oc1=O (configuration not stated),-1,103,103,10
COc1ccccc1NCC(=O)N/N=C1\CCS(=O)(=O)c2ccc(F)cc21,-15,114,122,-11
CSc1cc(-c2ccc(Cl)cc2)nc(-c2cccs2)c1,6,101,103,9
COc1ccc(OC)c(NC(=O)c2n[nH]n3c2nc(=O)c2ccccc23)c1,15,100,96,-27
CC1(C)CC(NCc2ccccc2F)CC(C)(C)N1,9,106,102,x
CCCCn1nnnc1SCC(=O)NCc1ccccc1,-48,100,104,-1
OCC1(CO)COC(c2cccnc2)N1 (configuration not stated),8,103,104,-12
CCCCC(=O)Nc1nnc(-c2ccc(Cl)cc2)o1,-23,105,102,-54
COc1cc(C(=O)N(Cc2cccnc2)Cc2ccc(C)o2)cc(OC)c1OC,-8,103,98,-3
CCOC(=O)CC(=O)Nc1ccsc1C(=O)OC,-52,102,101,3
COc1ccc(CCNC(=O)c2cn(CC(C)C)c(=O)c3cc(OC)c(OC)cc23)cc1OC,-17,99,98,0
CC(C)N(C(=O)CSc1nnc(CSc2ncccn2)n1C)C(C)C,-8,100,103,4
CCSc1nc2c(c(=O)[nH]c(=O)n2C)n1C,4,102,103,6
CN(C)c1ccc(C(CC(=O)O)NC(=O)c2ccc(Cl)cc2)cc1 (configuration not stated),-44,105,100,-11
COC(=O)CSc1ncn(-c2ccccc2)n1,-10,100,99,35
CC1CC(C)CN(C(=O)c2cccs2)C1 (configuration not stated),-30,103,105,x
Cc1ccc(C)c(-n2nnnc2SCC(=O)N=c2sc3ccccc3n2C)c1,9,110,107,6
CN(C)C(=O)COC(=O)c1ccccc1I,-18,102,101,12
CCc1ccc(NC(=O)Nc2nnc(N3CCCCC3C)s2)cc1 (configuration not stated),10,101,100,-13
C[C@@H](NC(=O)c1cccnc1)c1ccccc1,7,100,99,-8
Cc1cc(C)c(C(=O)Nc2cccnc2)c(CC(C)(C)C(=O)O)c1,13,101,95,5
CC1CC(=O)C2=C(C1)OC(N)=C(C#N)C2c1ccccc1 (configuration not stated),-47,100,103,-8
SMILES,MenB inh,PV pol inh,PV pol inh intensity,Mtb MbtI inh
CN(C)c1ccc(CNC(=O)CCC(=O)N2CCSc3ncccc32)cc1,1,101,103,-3
O=C(Nc1c(F)cccc1F)c1cccc(Oc2ccccc2)c1,x,105,107,-17
COC(=O)[C@H](Cc1ccccc1)NC(=O)[C@@H](N)CC(=O)O,3,99,102,-10
NS(=O)(=O)c1ccc(NC(=O)CCCC(=O)O)cc1,3,104,106,-6
COc1[nH]c2ccccc2c1/C=N/O,7,102,101,2
c1ccn2c(SCc3ccc4c(c3)OCCO4)nnc2c1,-10,104,106,11
Cc1cc(Cl)n(-c2ccc(F)cc2)n1,12,101,98,16
CCOC(=O)CNc1nnc(-c2ccccc2)c(-c2ccccc2)c1C#N,-10,102,105,x
Cc1ccc(N(CC(=O)N2CCc3ccccc32)C2=NC(=O)CS2)cc1,-9,105,104,-3
Cc1cccc(CC(=O)N2CC(C)OC(C)C2)c1 (configuration not stated),-24,102,104,-10
Nc1c(S(=O)(=O)c2ccc(F)cc2)c2nc3ccccc3nc2n1Cc1cccs1,-29,x,x,106
CC1CCCC(C)N1CC(=O)N1CCCc2c1c(=O)oc1ccc(OCc3ccccc3)cc21 (configuration not stated),-6,104,101,92
CCN(CC)c1ccc(C=NNC(=O)Cn2nnc3ccccc32)c(O)c1,-108,100,103,-4
C=CCn1c(SC(C)C(N)=O)nnc1-c1ccc(OC)cc1 (configuration not stated),-10,105,109,-16
CC(Sc1nc2ccccc2c(=O)n1C)C(=O)Nc1ccc2c(c1)OCCO2 (configuration not stated),-16,103,102,2
N=C=C1C(=O)c2ccccc2C1=O,-9,101,100,3
CC(C)c1nc2ccccc2n1Cc1ccccc1Cl,-29,102,97,-11
CN(Cc1nnc(-c2ccccc2)o1)C(=O)c1ccc(F)cc1,-10,101,103,-25
Clc1nc(Nc2ccccc2)sc1/C=N/N1CCOCC1,-24,x,x,-12
N#CC1=NN(c2ccccc2)C(c2ccccc2)CC1=O (configuration not stated),-133,104,108,x
NS(=O)(=O)c1ccc(CCNC(=O)C(Sc2ccccc2)c2ccccc2)cc1 (configuration not stated),1,103,113,x
CCC12CN(C(=O)c3ccc(OC)cc3)CC(CC)(CN(C(=O)c3ccc(OC)cc3)C1)C2=O,-17,112,111,x
CCC(Sc1nc2ccsc2c(=O)n1NC(=O)c1ccccc1)C(=O)Nc1cccc(C)c1 (configuration not stated),-19,99,102,30
COc1ccc(CN2CCN(c3ccc(F)cc3)CC2)c2ccccc12,-26,100,103,40
CSc1nc2nc3c(c(=O)n2[nH]1)CCCC3,-49,102,109,5

# Gathered by group: the compounds so far containing a tert-butyl group (2)
SMILES,MenB inh,PV pol inh,PV pol inh intensity,Mtb MbtI inh
CC(C)(C)CC(=O)NC1CCCc2ccccc21 (configuration not stated),5,100,104,5
CC(C)(C)NS(=O)(=O)c1ccc(NC(=O)Nc2ccc(Cl)cc2)cc1,-16,98,103,-10

# Next results
SMILES,MenB inh,PV pol inh,PV pol inh intensity,Mtb MbtI inh
Cn1cc(C(=O)OCc2cccc3ccccc23)cn1,-20,105,108,-10
CN(C(=O)CSc1nccc(=O)[nH]1)C1CCCCC1,4,103,99,-10
Cn1c(O)c(C=Nc2ccccc2)oc1=S,-38,102,98,-12
Cn1c(SCc2nc(N)nc(N3CCCc4ccccc43)n2)nnc1-c1ccccc1,-60,101,100,0
CCS(=O)(=O)N1CCC(NC(=O)c2ccccc2Cl)CC1,-11,100,104,-2
Cc1ccc(CNC(=O)CSc2nnc(N3C(=O)c4ccccc4C3=O)s2)cc1,-16,96,99,x
Cc1nnsc1C(=O)ON=C(c1cccs1)c1cccs1,-12,102,102,8
Cc1ccc(N/N=C(\C#N)C(=O)NC2CC2)cc1C,-79,103,101,-13
COc1ccc(C2C(C(=O)N3CCOCC3)=C(C)NC3=C2C(=O)CCC3)cc1Br (configuration not stated),-23,100,102,127
CCN1CCN(CCNC(=O)c2ccc3c(c2)NC(=O)/C(=C\c2cccc(Cl)c2)S3)CC1,-13,101,104,4
CCNC(=O)/C(C#N)=C/C1=Cc2ccccc2OC1,-98,115,189,17
O=C(Nc1cc(Cl)ccc1N1CCOCC1)c1ccc2c(c1)S(=O)(=O)N=C1CCCCCN12,-25,102,109,37
O=C(O)CCC(=O)NCC1COc2ccccc2O1 (configuration not stated),8,105,109,-6
CCc1cccc(NC(=O)c2csc3c2CCCC3)c1,-38,100,103,11
CCOC(=O)CSc1nnc(-c2ccccc2C)n1CC,-4,99,102,-11
CC(=O)Nc1cc2ccccc2oc1=O,-1,102,99,-319&28
CCn1cc(Br)c(-c2nc3ccccc3c(=O)n2N)n1,-19,102,104,4
Cc1[nH]c2ccccc2c1C,-19,99,101,11
COC(=O)CC1(C)NN=C(c2ccccc2)S1 (configuration not stated),-64,101,101,28
C=C1CC[C@H](O)C/C1=C/C=C1\CCC[C@]2(C)C([C@H](C)/C=C/[C@H](C)C(C)C)CC[C@@H]12 (some centres not stated),4,99,102,-9

# Five entries from above in a different format:
smiles	MenB inh	PV pol inh	PV pol inh intensity	Mtb MbtI inh
CCc1cccc(NC(=O)c2csc3c2CCCC3)c1	-38	100	103	11
CCOC(=O)CSc1nnc(-c2ccccc2C)n1CC	-4	99	102	-11
CC(=O)Nc1cc2ccccc2oc1=O	-1	102	99	-319&28
CCn1cc(Br)c(-c2nc3ccccc3c(=O)n2N)n1	-19	102	104	4
Cc1[nH]c2ccccc2c1C	-19	99	101	11

# Not a retest: entries from further up.
SMILES,MenB inh,PV pol inh,PV pol inh intensity,Mtb MbtI inh
CCc1cccc(NC(=O)c2csc3c2CCCC3)c1,-38,100,103,11
CCOC(=O)CSc1nnc(-c2ccccc2C)n1CC,-4,99,102,-11
